gsp agonist: qHTS for Agonist of gsp, the Etiologic Mutation Responsible for Fibrous Dysplasia/McCune-Albright Syndrome: qHTS. gsp mutant cells, cAMP HTRF, 30 min; control for the full effect not named in the record. Potency, µM (doses to about 76.9 µM), for the others: top-dose activation (cAMP increase), actives largely listed as activators. 340,000 tested, 0.13% active. AID 624287, 2012; active = well fitted activation curve with a large enough effect; inconclusive = small, poorly fitted or top-dose-only effect, or another doubt; inactive = no such curve, though single readings can be large or run the other way; cell line not stated here;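 also: phosphodiesterase inhibitor Ro 20-1724 added with compounds to block cAMP breakdown; potency is read from the fitted curve at half-maximal effect; nearly all actives have a fitted effect of over 60% in size; about a fifth of the inactives were tested at one dose only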
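Cells stably selected in G418 were plated at 2000/well, grown 16-24 hr, then given compounds in DMSO with the PDE inhibitor […] (300 uM solution added) for 30 min at 37C; cAMP was read by HTRF.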
gsp antagonist: qHTS for Antagonists of gsp, the Etiologic Mutation Responsible for Fibrous Dysplasia/McCune-Albright Syndrome: qHTS; Potency, µM (titrated, usually from 76.9 µM), for inactives: top-dose activity change, negative = inhibition, most hits filed as inhibitors; AID 624288, 2012; 340,000 tested, 0.4% active; gsp-mutant cells, cAMP HTRF, 30 min; control for the full effect not named in the record; active = falling curve of any shape with a large fitted effect; inconclusive = falling curve, mostly with a smaller effect; inactive = flat or rising curve; cell line not stated here;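 also: intracellular cAMP measured with PDE inhibitor Ro 20-1724 present during compound exposure; potency is read from the fitted curve at half-maximal effect; % is scaled to controls: 0 for no effect and ±100 for the full control effect; nearly all actives have a fitted effect of over 65% in size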
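Cells, 2000/well, grown 16–24 h in DMEM 10% FBS with 0.5 mg/ml G418, then compounds plus […] (300 uM addition stock), 30 min at 37C. cAMP read by HTRF (cAMP-d2 and anti-cAMP antibody-K in lysis buffer) after 30 min RT.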
Menin MLL FP FL: qHTS Assay for Inhibitors Targeting the Menin-MLL Interaction in MLL Related Leukemias: Competition With Fluorescein Labeled MLL-derived Peptide; Fluorescence polarization, fluorescein-MLL peptide displacement from menin; FP activity change, % at 61.4 µM; 290,000 tested, under 10 active; AID 1766, 2009; inconclusive = falling polarisation curve, or a change in total fluorescence; inactive = total fluorescence flat and polarisation flat or rising; no compound was filed as active; the % refers to the polarisation; negative = inhibition;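 also: % of control where 0% means no effect; inhibitors lower the polarisation; unlabelled MLL peptide was the positive control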
ClpP mod: qHTS Assay for Activators of ClpP; purified B. subtilis ClpP, FRET peptide cleavage, 20 min; Potency, µM (series often up to 57.5 µM), without a hit: at the highest dose activity change, negative = active; ATP-dependent Clp protease proteolytic subunit (Bacillus subtilis (strain 168)), P80244; 340,000 tested, 1.9% active; active = well fitted falling curve with a large enough effect; inconclusive = small, poorly fitted or top-dose-only effect; inactive = no such curve, though single readings can be large or run the other way; also: potency is read from the fitted curve at half-maximal effect; the source files actives as falling curves though it sought activators and does not explain the sign; nearly all actives have a fitted effect of over 65% in size; many hits overshoot -100%
Target sequence (P80244 whole entry, looked up): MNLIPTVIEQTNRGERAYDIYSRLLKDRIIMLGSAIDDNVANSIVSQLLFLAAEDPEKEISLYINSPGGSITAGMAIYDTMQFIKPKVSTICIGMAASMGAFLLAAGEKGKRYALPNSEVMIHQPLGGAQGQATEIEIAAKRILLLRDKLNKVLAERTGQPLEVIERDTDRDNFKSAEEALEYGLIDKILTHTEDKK
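ClpP 10 microg/mL final, pH 8 Tris/KCl buffer with BSA, glycerol, Tween-20; compound pinned in; FRET-FV substrate; RT 20 min; Ex320/Em430; ΔFRET vs ADEP 5.8 microM, DMSO, no enzyme.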
TRPV1 PAM: HTS Assay for Compounds that Act as Potentiators of the Vanilloid Receptor 1; Transient receptor potential cation channel subfamily V member 1 (Homo sapiens), Q8NER1; potentiation, % at 8.33 µM; AID 540277, 2011; TRPV1-expressing cells, Fluo-8 calcium influx, capsaicin EC20 potentiation; host cell line not named in the record; control for the full effect not named in the record; 320,000 tested, 0.02% active; active means potentiation above 80%; inconclusive means 30% to 80%; inactive means below 30%; also: 0% is about no effect
Target sequence (Q8NER1 whole entry, looked up): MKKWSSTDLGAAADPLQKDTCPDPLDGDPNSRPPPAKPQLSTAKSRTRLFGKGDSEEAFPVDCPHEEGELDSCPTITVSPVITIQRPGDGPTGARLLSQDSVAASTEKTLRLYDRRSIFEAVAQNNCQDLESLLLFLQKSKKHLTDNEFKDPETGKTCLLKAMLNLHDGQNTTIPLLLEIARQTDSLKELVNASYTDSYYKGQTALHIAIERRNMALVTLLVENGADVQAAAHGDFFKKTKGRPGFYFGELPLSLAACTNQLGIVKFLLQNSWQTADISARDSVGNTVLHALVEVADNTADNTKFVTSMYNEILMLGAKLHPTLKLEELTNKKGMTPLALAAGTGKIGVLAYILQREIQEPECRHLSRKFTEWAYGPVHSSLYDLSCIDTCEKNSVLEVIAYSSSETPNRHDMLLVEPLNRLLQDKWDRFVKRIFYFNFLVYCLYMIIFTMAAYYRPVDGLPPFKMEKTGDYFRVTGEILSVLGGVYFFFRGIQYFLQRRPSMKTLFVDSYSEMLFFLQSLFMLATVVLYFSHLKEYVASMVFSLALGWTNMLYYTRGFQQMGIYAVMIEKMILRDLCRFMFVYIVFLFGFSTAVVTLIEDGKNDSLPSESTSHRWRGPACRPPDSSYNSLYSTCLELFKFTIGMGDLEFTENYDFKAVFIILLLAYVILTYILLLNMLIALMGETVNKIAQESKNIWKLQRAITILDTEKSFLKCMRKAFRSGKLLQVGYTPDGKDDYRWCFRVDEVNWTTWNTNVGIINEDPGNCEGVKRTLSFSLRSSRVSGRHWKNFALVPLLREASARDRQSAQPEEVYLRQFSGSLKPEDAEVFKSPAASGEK
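TRPV1-expressing cells were cultured overnight at 35.5C and loaded with Fluo-8 calcium dye for 40 to 90 min at room temperature. After a 10 s baseline, compound was added and calcium influx was read kinetically for 3 min (ex 480/em 520 nm).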
Sfp PPTase inh: qHTS Assay for Inhibitors of Bacillus subtilis Sfp phosphopantetheinyl transferase (PPTase) | 310,000 tested, 3.5% active | Potency, µM, for the others: max response, negative = inhibition, most hits filed as inhibitors | AID 1490, 2009 | Biochemical Sfp PPTase activity, qHTS | 4'-phosphopantetheinyl transferase ffp (Bacillus subtilis), Q9F4F7; active = well fitted inhibition curve with a large enough effect; inconclusive = small, poorly fitted or top-dose-only effect, or another doubt; inactive = no such curve, though single readings can be large or run the other way;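 also: the enzyme is Sfp with the accession as filed and its product quenches rhodamine fluorescence; potency is read from the fitted curve at half-maximal effect; 0% = enzyme reaction without inhibitor and -100% = no enzyme wells; top concentration of the series not given in the record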
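Compounds were incubated with enzyme (final 15 nM) for 15 min at room temperature before substrate addition started the reaction. Fluorescence at 525 nm excitation, 598 nm emission was recorded immediately and after 30 minutes.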
CtBP-E1A blk: qHTS Assay for Inhibitors of the CtBP/E1A Interaction | 340,000 tested, 0.49% active | AID 651724, 2012 | CtBP / adenovirus E1A interaction (AlphaScreen) | activity change, % (concentration not given with the values) | AlphaScreen GST-E1A/His-CtBP binding, 1536-well; hits give low values; control for the full effect not named in the record; in the data active means activity change below about -65%; inconclusive means about -30% to -65%; inactive means above about -30%; also: % is scaled to controls: 0 for no effect and ±100 for the full control effect
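Homogeneous bead-based format: GST-tagged E1A captured on glutathione donor beads, His-tagged CtBP on nickel acceptor beads; compounds precede bead addition by 2 h at 37 °C.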
An asterisk follows results filed as active; ? = inconclusive; . = no result given; [ ] = remark or other dose.

Each structure is followed by: gsp agonist	gsp antagonist	Menin MLL FP FL	ClpP mod	TRPV1 PAM	Sfp PPTase inh	CtBP-E1A blk
CCN(CC)S(=O)(=O)c1cc(NS(=O)(=O)c2cccc(C(=O)O)c2)ccc1C
 : 15%	6%	-3.9	.	4	17%	4
COC(=O)c1cc2nc(-c3ccccc3)cc(C)n2n1
 : 6%	14%	3.2	?	13	-5%	4
COC(=O)[C@@H]1CC(O)CN1C(=O)C12CC3CC(CC(C3)C1)C2 (some centres not stated)
 : 22%	8%	-0.7	0.4%	12	12%	.
CN(Cc1cnccn1)C(=O)CC1C(=O)NCCN1Cc1c(F)cccc1Cl (configuration not stated)
 : -25%	-5%	0.6	-1.0%	-10	12%	2
N#C/C(=C\c1cc2ccccc2nc1N1CCCCC1)C(N)=O
 : 8%[15.4 µM]	-10%	6.6	0.9%	2	3%	-12
COC(=O)c1ccccc1NS(=O)(=O)c1ccc(NC(C)=O)cc1
 : -11%[15.4 µM]	-17%	-0.5	.	0	3%	0
COc1ccc(/C=C/C(=O)c2sc(-c3ccccc3)nc2C)cc1
 : 9%	11%	-0.1	-1.6%	-1	-3%	-2
O=C(O)c1ccccc1NS(=O)(=O)c1ccc(N/N=C/c2ccc(O)c(O)c2)c([N+](=O)[O-])c1
 : -16%	-10%	.	0.9%	.	.	11
CCOC(=O)C1CCN(S(=O)(=O)c2ccc(Cl)cc2OC)CC1
 : 11%	19%	3.2	0.4%	13	16%	9
COc1cc2c(cc1NC(=O)CN(C)Cc1cccc(OC)c1OC)oc1ccccc12
 : -1%	?	1.9	?	23	-20%	0

A draw from above in order of SMILES length, lowest first.
Each structure is followed by: gsp agonist	gsp antagonist	Menin MLL FP FL	ClpP mod	TRPV1 PAM	Sfp PPTase inh	CtBP-E1A blk
COC(=O)c1cc2nc(-c3ccccc3)cc(C)n2n1
 : 6%	14%	3.2	?	13	-5%	4
COc1ccc(/C=C/C(=O)c2sc(-c3ccccc3)nc2C)cc1
 : 9%	11%	-0.1	-1.6%	-1	-3%	-2
COC(=O)c1ccccc1NS(=O)(=O)c1ccc(NC(C)=O)cc1
 : -11%[15.4 µM]	-17%	-0.5	.	0	3%	0
COC(=O)[C@@H]1CC(O)CN1C(=O)C12CC3CC(CC(C3)C1)C2 (some centres not stated)
 : 22%	8%	-0.7	0.4%	12	12%	.
O=C(O)c1ccccc1NS(=O)(=O)c1ccc(N/N=C/c2ccc(O)c(O)c2)c([N+](=O)[O-])c1
 : -16%	-10%	.	0.9%	.	.	11

Further results
Each structure is followed by: gsp agonist	gsp antagonist	Menin MLL FP FL	ClpP mod	TRPV1 PAM	Sfp PPTase inh	CtBP-E1A blk
CCOC(=O)c1cnn2c(N)c(C#N)cnc12
 : ?	-1%	3.2	3.3%	-12	-26%	.
COc1ccc2cc([C@H](C)C(=O)N(C)Cc3ccccc3N3CCCC3)ccc2c1
 : -9%[15.4 µM]	-21%	?	.	-15	-14%	?
COc1cccc(C(=O)NN2CC(O)=C(c3nc4ccccc4n3C)C2=N)c1
 : .	.	1.2	.	12	4%	.
O=C1C2C3C=CC(C4CC34)C2C(=O)N1/N=C/c1ccc(-c2ccc(Cl)cc2[N+](=O)[O-])o1 (configuration not stated)
 : -1%	-15%	11	-26%	-1	-27%	-22
CC(=O)NC(Cc1cc(C)ccc1C)C(=O)N1CCN(C(=O)Nc2ccc(C(C)=O)cc2)CC1 (configuration not stated)
 : -48%[inhibitor]	-2%	-0.8	-1.2%	11	5%	2
O=C(O)c1ccc(-n2cccc2/C=N\NC(=O)c2cc3cc(Br)ccc3o2)cc1
 : 18%[15.4 µM]	-15%	11	.	6	-11%	1
Cc1nc(SCC(=O)Nc2nc3ccccc3s2)n[nH]1
 : ?	3%	.	0.3%	8	4%	-2
Cc1ccccc1C1NS(=O)(=O)N=C1N (configuration not stated)
 : -1%	6%	0.8	2.0%	5	0%	0
O=C(Nc1ccccc1)c1ccc(S(=O)(=O)Nc2cccc(O)c2)cc1
 : 14%	1%	.	-0.1%	13	7%	-1
Cc1ccc(-c2nn(CCC(=O)NCC3CCCO3)c(=O)c3ccccc23)cc1 (configuration not stated)
 : -18%	-11%	2.9	-0.5%	-16	-6%	1
COc1ccc(NS(=O)(=O)c2ccc(Oc3c(C#N)cccc3C#N)cc2)cc1
 : 32%	-29%	2.5	.	-2	17%	5
CC(C)C(C(=O)NCC1CCCO1)N(Cc1ccco1)C(=O)CNS(=O)(=O)c1ccc(F)cc1 (configuration not stated)
 : -13%	0%	2.8	-1.8%	23	16%	-6
CC1(C)CC(=O)c2c(-c3cccnc3)n[nH]c2C1
 : 8%	4%	0.1	-0.7%	16	3%	-10
Clc1ccccc1C=NNc1ccccn1
 : -30%[inhibitor]	-5%	.	-1.5%	.	.	9
COc1ccc(C(=O)Nc2cc(C)ccc2NC(=O)COc2ccccc2)cc1
 : 56%	3%	0.7	1.8%	-12	11%	14
O=c1c2ccccc2c(=O)n(Cc2ccccc2)n1Cc1ccccc1
 : -31%[inhibitor]	?	6.5	-28%	?	-21%	17
CC(C)[C@H]1C(=O)Nc2ccccc2N1C(=O)N[C@@H](Cc1ccccc1)C(=O)N[C@H](Cc1ccccc1)C(=O)O
 : .	11%	0.5	-0.3%	5	12%	-3
O=C(Oc1ccccc1C(=O)N1CCOCC1)c1ccc(F)cc1
 : 2%[15.4 µM]	18%	8.2	.	4	25%	10
COCCNC(=O)CSc1nc2nc(C)cc(C)n2n1
 : ?	5%	2.0	-3.7%	3	13%	9
C=CCN1C(=O)c2ccc(C(=O)N(CC)CC(=O)Nc3c(F)cccc3F)cc2C1=O
 : 1%[15.4 µM]	8%	.	4.4%	7	.	3

3 of the entries above in order of the gsp antagonist value, high to low:
canonical_smiles	gsp agonist	gsp antagonist	Menin MLL FP FL	Sfp PPTase inh	CtBP-E1A blk
O=C(Oc1ccccc1C(=O)N1CCOCC1)c1ccc(F)cc1	2%[15.4 µM]	18%	8.2	25%	10
COCCNC(=O)CSc1nc2nc(C)cc(C)n2n1	?	5%	2.0	13%	9
CC(C)C(C(=O)NCC1CCCO1)N(Cc1ccco1)C(=O)CNS(=O)(=O)c1ccc(F)cc1 (configuration not stated)	-13%	0%	2.8	16%	-6

(further entries)
Each structure is followed by: gsp agonist	gsp antagonist	Menin MLL FP FL	ClpP mod	TRPV1 PAM	Sfp PPTase inh	CtBP-E1A blk
Cc1nc2nc(C)n(CCN3CCOCC3)c(=O)c2c(-c2cccc([N+](=O)[O-])c2)c1C(=O)CCCCCCCCCCN1CCC(c2ccccc2)(c2ccccc2)CC1
 : 14%	-18%	.	-0.5%	.	.	?
COc1ccccc1/C=N/NC(=O)c1ccc2c(c1)OCO2
 : 5%[15.4 µM]	-1%	2.1	-0.8%	-16	-7%	7
COc1ccccc1N(C)S(=O)(=O)c1ccc(Cl)c(C(=O)Nc2cccc(C)n2)c1
 : 11%[15.4 µM]	-8%	.	.	-8	.	-11
O=C(Nc1ccc(Br)cc1)c1cccnc1N1CCCCC1
 : 33%	-22%	5.4	-3.7%	6	-10%	18
COc1ccc(/C=C/C(=O)C2(O)CCCCC2)cc1
 : 9%	4%	-1.9	.	-4	7%	-18
CC(C)NC(=O)N(C)C[C@H]1Oc2ccc(NS(=O)(=O)c3ccccc3)cc2C(=O)N([C@H](C)CO)C[C@H]1C
 : -26%	-2%	.	0.3%	.	.	.
Cc1ccn2c(=O)nc(SCC(=O)N3CCC(C)CC3)nc2c1
 : ?	3%	.	-14%	-21	.	4
COCCCNC(=O)CCc1nc2cccnc2n1Cc1ccccc1
 : 12%	15%	-1.1	-1.3%	14	5%	3
O=C(Nc1ccc(C(=O)N2CCCCC2)cc1)C1CCC1
 : .	9%	.	2.8%	.	.	11
CCOc1ccc(C2C=C(c3ccccc3)Nc3ncnn32)cc1 (configuration not stated)
 : .	.	?	.	-13	-10%	.
Cc1cc(C(=O)N/N=C2\CC(=O)CC(C)(C)C2)c(C)n1-c1ccc(F)cc1
 : -3%	0%	3.0	-1.3%	-10	-2%	13
Cc1cc(OCC(=O)N(Cc2cccs2)C2CCS(=O)(=O)C2)ccc1Cl (configuration not stated)
 : 27%	-9%	-3.4	0.7%	-7	-2%	3
COc1cc(N2CCCC2)c(OC)cc1/C=C(/C#N)c1cccc(Br)c1
 : 12%[15.4 µM]	-11%	?	-1.1%	4	-14%	?
CCCn1c2ccccc2c2cn[nH]c(=O)c21
 : 3%[15.4 µM]	2%	3.3	-1.9%	8	7%	5
Cc1ccc(Nc2nnc(SCC(=O)c3c(N)n(C4CC4)c(=O)[nH]c3=O)s2)cc1C
 : 0%	-31%	.	-0.3%	4	.	-5
O=c1[nH]ccc2c([N+](=O)[O-])cccc12
 : 2%	-1%	0.0	3.3%	0	4%	.
COc1cc(S(=O)(=O)NC2CCCCC2C)ccc1-n1cnnn1 (configuration not stated)
 : 1%[15.4 µM]	5%	0.1	.	-6	13%	0
